Sfp PPTase inh: Sfp phosphopantetheinyl transferase inhibition; 310,000 tested, 3.5% active; Potency, µM, for inactives: max response, negative = inhibition, most hits filed as inhibitors; Biochemical Sfp PPTase activity, qHTS; Q9F4F7; active means well fitted inhibition curve with a large enough effect; inconclusive means small, poorly fitted or top-dose-only effect, or another doubt; inactive means no such curve, though single readings can be large or run the other way;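 further: the enzyme is Sfp with the accession as filed and its product quenches rhodamine fluorescence; 0% = enzyme reaction without inhibitor and -100% = no enzyme wells; top concentration of the series not given in the record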
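Sfp 15 nM + cpd, 15 min RT; start w/ rhodamine-CoA 5 uM, BHQ-2-YbbR 12.5 uM (final); 50 mM Hepes pH 7.6, 10 mM MgCl2, 0.01% NP-40, 0.01% BSA; read 525/598 nm at 0 and 30 min.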
* marks the source's active call; other numbers are inactive results; ? = inconclusive; & = joins results of further samples; ! = repeats disagree; [ ] = remark or other dose. Potency means the concentration at half of the fitted maximal effect. Not all compounds are listed; rates above refer to the full screens.

structure	Sfp PPTase inh
COc1ccc(CCNC(=O)C(=O)c2c[nH]c3ccccc23)cc1	23%
CCCCCCN(C(=O)CCCCCN1C(=O)NC(c2ccc3ccccc3c2)C(C(=O)OCc2ccccc2)=C1C)C(C(=O)NCCCC)c1ccc(OCC(=O)OC)c(C(=O)OC)c1 (stereo unspecified)	16%
COC(=O)C1=C(C)N(Cc2ccccc2)[C@]23O[C@](C(=O)OC)(C(=O)N2C1c1ccccc1)C1CCCC(=O)C13 (stereo partly specified)	12%&-10%
COC(=O)C(C(=O)OC)C1c2ccccc2C=C(C)N1C(=O)OC (stereo unspecified)	8%
COc1ccc(C2/C=C\CN(C(=O)C3CCCCC3)C(Cc3ccccc3)C(=O)N2Cc2ccc(F)cc2)cc1 (stereo unspecified)	3%
COc1cccc(CS(=O)(=O)c2nnnn2-c2ccccc2)c1	8%
C/C(CCC(=O)OC[C@@H]1O[C@H](C#Cc2ccccc2)C=C[C@@H]1Oc1ccc(C)cc1)=N/O[C@@H](C)c1cn([C@H]2COC[C@H]2O)nn1	9%
Cc1nc(NCc2ccccc2)c2nc(-c3ccccc3)n(C3CCN(Cc4ccccc4)C3)c2n1 (stereo unspecified)	17%
N[C@H](C(=O)O)c1nn[nH]n1	89µM*
C[C@@H](CO)[C@H](/C=C/c1ccccc1)CCO[Si](c1ccccc1)(c1ccccc1)C(C)(C)C	33%
COc1ccc(C2/C=C\CN(CC(C)C)C(C)C(=O)N2Cc2ccc(F)cc2)cc1 (stereo unspecified)	-3%
COc1ccc(-c2ccoc2)cc1C1C2C=CCC(C)C2C(=O)N1Cc1ccccc1 (stereo unspecified)	-15%
C=CCC(C)(O)c1cccs1 (stereo unspecified)	9%
COc1cc(C(CCN2CCCCC2)c2c(OC)cc(OC)c3c2OC(=O)CC3c2ccc(N(C)C)cc2)cc(OC)c1OC (stereo unspecified)	-24%
CCCCCCCCCCCCCCCC(=O)OCC(COC(=O)CCCCCCCCCCCCCCC)OC(=O)CCCCCCCCCCCCCCC	5%

More entries.
structure	Sfp PPTase inh
CN(C)C1CCN(CCCOc2ccc(-c3ccc(C#N)cc3)cc2)C1 (stereo unspecified)	-6%&-1%
O=c1ccn([C@@H]2O[C@H](COP(=O)(O)OP(=O)(O)O)[C@@H](O)[C@H]2O)c(=O)[nH]1	11%
CCN1C(=O)[C@H]2[C@H]3[C@H](O)[C@H](O)C/C(=N/O[C@@H]4O[C@@H](COC(C)=O)[C@@H](OC(C)=O)[C@@H](OC(C)=O)[C@H]4OC(C)=O)[C@@H]3CC[C@@H]2C1=O	1%
c1ccc2c(c1)SCc1c-2[nH]c2ccccc12	?
NC(CSSCC(N)C(=O)O)C(=O)O (stereo unspecified)	7%&13%
CC/C(=C(/CC)c1ccc(OP(=O)(O)O)cc1)c1ccc(OP(=O)(O)O)cc1	1%
C=CC[C@@H]1C=C[C@H](O/N=C(\C)CCN2CCc3nc(-c4ccccc4)c(-c4ccccc4)cc3C2)[C@H](CO)O1	15%
Cc1cc(N)c2ccccc2[n+]1CCCCCCCCCC[n+]1c(C)cc(N)c2ccccc21	4.5µM*!
O=C1C=CC(=O)C2=C1C1c3ccccc3C2c2ccccc21	3.2µM*
CCCCC/C=C\C\C=C/C=C/C=C/[C@@H](SC[C@H](N)C(=O)NCC(=O)O)[C@@H](O)CCCC(=O)O	3%
COC(=O)c1ccc(C(NC(=O)OCc2ccccc2)/C(=C/[C@@H](C)C(=O)NCc2cc(C)n(C)n2)c2cccnc2)cc1 (stereo partly specified)	19%
CC(C)(Oc1ccc(C2CCCc3ccccc32)cc1)C(=O)O (stereo unspecified)	-3%
N#Cc1cccc(CS(=O)(=O)c2nc3ccccc3s2)c1	-10%
Cc1cccc(-c2cccc(-c3cc(=O)oc4cc5c(cc34)OCO5)c2)c1	-5%
C[C@@H]1C(=O)O[C@H]2[C@@H](O)[C@@]34[C@H]5CC(C(C)(C)C)[C@]36[C@@H](OC(=O)[C@@H]6O)O[C@@]4(C(=O)O5)[C@@]12O (stereo partly specified)	13%

Next structures:
structure	Sfp PPTase inh
CCCCC1=CC2=C(c3ccco3)C(=O)C(C)(OC(=O)c3ccc(OC)cc3)C(=O)C2=CO1 (stereo unspecified)	16%
COC(=O)[C@@H]1[C@@H](C)N(CCc2cc(OC)c(OC)c(OC)c2)C(=O)N[C@H]1c1ccccc1	-14%
O=C1NC(=O)C(Cc2ccc(OCCN3COc4ccccc4C3=O)cc2)S1 (stereo unspecified)	4%
COCC1=C2c3ccccc3[C@H](C[N+](=O)[O-])C(C(=O)OC)(C(=O)OC)CC2C2C(=O)N(c3ccccc3)C(=O)C2C1 (stereo partly specified)	-9%&20%
O=C(NCCCCN1CCN(c2cccc(Cl)c2Cl)CC1)c1ccc2c(c1)Cc1ccccc1-2	-1%
COc1ccc(OCC2Cc3c(-c4ccccc4)nc4c(c3CO2)CN(CCOc2ccccc2)CC4)cc1 (stereo unspecified)	14%
C[C@@H]1O[C@H]2C3=C(C(=O)[C@H]4O[C@@H]4[C@H]3O)[C@@H]1[C@@H]1[C@@H](C)OC=C3[C@H](O)[C@H]4O[C@@H]4/C(=N\OCc4ccccc4)[C@]312	1%
COc1cc(NC(=O)O[C@@H]2C(=O)c3cc(Br)ccc3O[C@H]2c2ccc3c(c2)OCO3)cc(OC)c1OC	0%
O=C(O)c1cc(N(Cc2ccccc2O)Cc2ccccc2O)ccc1O	56µM*
Cc1cn([C@@H]2C[C@H](N=[N+]=N)[C@H](CO)O2)c(=O)[nH]c1=O	10%
CCc1cc(-c2oncc2-c2ccc(OC)cc2)c(O)cc1OC	-22%
COc1ccc2c(c1)OC/C(=C/c1ccc(O)c(O)c1)C2=O	4%
Cn1sc(=O)n(Cc2ccccc2)c1=O	0.14µM*
COCCN=C1OC(=O)N2C(=O)C3=C4C(C[C@H]5C(=O)N(c6ccccc6)C(=O)[C@H]5[C@H]4[C@@]12Cc1ccccc1)[C@H]1C(=O)N(c2ccccc2)C(=O)[C@H]1[C@H]3C (stereo partly specified)	24%
COc1cc2c(cc1OC)-c1c(oc3cc(O)cc(O)c3c1=O)CO2	-27%

For convenience, part of the list above:
structure	Sfp PPTase inh
CCCCC1=CC2=C(c3ccco3)C(=O)C(C)(OC(=O)c3ccc(OC)cc3)C(=O)C2=CO1 (stereo unspecified)	16%
COC(=O)[C@@H]1[C@@H](C)N(CCc2cc(OC)c(OC)c(OC)c2)C(=O)N[C@H]1c1ccccc1	-14%
O=C1NC(=O)C(Cc2ccc(OCCN3COc4ccccc4C3=O)cc2)S1 (stereo unspecified)	4%

Additional results.
mol	Sfp PPTase inh
CC(CNC(=O)c1cccnc1)NC(=O)c1cccnc1 (stereo unspecified)	2%
CC(C)=CCC/C(C)=C/CO/N=C1/C[C@@H](O)[C@@H](O)[C@@H]2[C@@H]3C(=O)N(Cc4ccc5c(c4)OCO5)C(=O)[C@H]3CC[C@@H]12	-2%
N#CCCN(CC#Cc1ccccc1)OCc1ccccc1	4%
Cc1ccccc1N1C(=O)c2cc(S(N)(=O)=O)c(Cl)cc2N[C@H]1C	7%
C=CCC1(c2ccccc2)Oc2ccccc2-c2nc3cc(Cl)c(Cl)cc3nc21 (stereo unspecified)	23%&-1%
CC(C)[C@@H](CC(=O)N[C@@H]1CCCC[C@H]1C(=O)N[C@H](CC(=O)N[C@@H](CCC(=O)O)CC(=O)O)Cc1c[nH]c2ccccc12)NC(=O)C[C@H](Cc1c[nH]c2ccccc12)NC(=O)[C@@H]1CNCC[C@H]1N	-15%
CCCCCCCc1cc2ccccc2c(=O)o1	-6%
O=c1cc(-c2ccccc2)oc2cc(O[C@@H]3O[C@H](CO)[C@@H](O)[C@H](O)[C@H]3O)c(O)c(O)c12	50µM*
COC(=O)[C@H](COC(C)(C)C)NC(=O)O[C@@H]1Cc2cc(Br)ccc2O[C@H]1c1cccc(OC)c1	1%
C[C@@H](c1ccccc1)N1C(=O)[C@H]2[C@H]3[C@H](O)[C@H](O)C/C(=N/OC[C@@H](O)COCc4ccco4)[C@H]3CC[C@@H]2C1=O	23%
CCOc1ccc(C[C@H]2NC(=O)CCSSC[C@@H](C(=O)N3CCC[C@H]3C(=O)N[C@@H](CCCN)C(=O)NCC(N)=O)NC(=O)[C@H](CC(N)=O)NC(=O)[C@H]([C@@H](C)O)NC(=O)[C@H]([C@@H](C)CC)NC2=O)cc1	-7%
CC(C)C[C@@H](CC(=O)N[C@@H](CCC(=O)O)CC(=O)O)NC(=O)[C@@H]1CCCC[C@H]1NC(=O)C[C@H](CCCN)NC(=O)C[C@H](Cc1c[nH]c2ccccc12)NC(=O)[C@@H]1CNCC[C@H]1N	-12%
COC[C@H]1OC=C[C@@H](OC)[C@@H]1OC	5%
O=C1CCC[C@H]2OC12[C@@H](O)CCc1ccccc1 (stereo partly specified)	18%
O=C1C[C@@H](O)[C@@H](O)[C@@H]2[C@H]3C(=O)N(c4ccc(F)cc4F)C(=O)[C@@H]3CC[C@H]12	5%

Remaining list, next part
mol	Sfp PPTase inh
CN(Cc1cc(Br)cc(Br)c1N)C1CCCCC1	3%
COc1cccc([C@@H]2Oc3ccc(Br)cc3C(=O)[C@H]2OC(=O)NCc2ccco2)c1	2%
O=C(O)c1cc(=O)c2cc(Cl)ccc2[nH]1	-6%
COC(=O)C1=C[C@@H](C(=O)OC)[C@@H]2C3=C(C(=O)[C@@]2(C)NC(=O)c2ccccc2)[C@H](C)[C@@H]2C(=O)N(Cc4ccccc4)C(=O)[C@@H]2[C@@H]3C1	7%
O=C(O)[C@H]1CN(C/C=C/P(=O)(O)O)CCN1	13%&13%
CO/N=C(\C(=O)N[C@@H]1C(=O)N2C(C(=O)O)=C(COC(C)=O)CS[C@H]12)c1csc(N)n1	?
CCC(=O)OC1(C)C(=O)C=C2C=C(CCCNC(=O)OC(C)(C)C)OC=C2C1=O (stereo unspecified)	-4%
CN(C)[C@H]1C(=O)C(C(=O)NCN2CCCC2)=C(O)[C@]2(O)C(=O)C3=C(O)c4c(O)cccc4[C@@](C)(O)[C@H]3C[C@@H]12	3%
C[C@H]([C@H](C)N1CC(=O)NC(=O)C1)N1CC(=O)NC(=O)C1	?
O=C(O)P(=O)(O)O	9%
CCC[C@@H]1C[C@@H](C(=O)N[C@@H]([C@H]2O[C@H](SC)[C@H](O)[C@@H](O)[C@H]2O)[C@@H](C)O)N(C)C1	-3%
O=C(O)c1cc(O)c2c(c1)[O][Bi][O]2	?
N[C@@]1(C(=O)O)CO[C@H]2[C@H](C(=O)O)[C@H]21	-8%
CC12CCC3C(CCC4CC(O)CCC43C)C1CC=C2c1ccccc1 (stereo unspecified)	7%
COc1ccc(C2/C=C\[C@H](O[Si](C)(C)C(C)(C)C)[C@H](C(C)C)CC(=O)N2Cc2ccccc2)cc1 (stereo partly specified)	4%

The list goes on:
mol	Sfp PPTase inh
COc1cc(C(=O)Oc2ccc3c(OC)c4ccoc4nc3c2OC)cc(OC)c1OC	-16%
O=C(O)CCC/C=C\CC1C2CCC(O2)C1CNNC(=O)Nc1ccccc1 (stereo unspecified)	32%&-12%[activator]
c1ccc(COCCCc2cnc[nH]2)cc1	-20%
CCCCCCCCCCCCCCCCOP(=O)([O-])OCC[N+](C)(C)C	24%
N[C@@H](C(=O)O)c1ccc(C(=O)O)c(C(=O)O)c1	4%&4%&-17%
NCCC(=O)c1ccccc1N	-7%
CCCN1CCC(=O)N(C(CSc2ccc(OC)cc2)CC(C)C)CC1 (stereo unspecified)	3%
COc1ccc(C(=O)CC(=O)c2c(O)cc(OC)cc2OC)cc1	3%
CCOc1ccc(Cc2nccc3cc(OCC)c(OCC)cc23)cc1OCC	-10%&1%
C[C@H](CCCC(C)(C)O)[C@H]1CC[C@H]2[C@@H]3CC=C4C[C@@H](O)CC[C@]4(C)[C@H]3CC[C@]12C	13%
COC/C=C/C1=CC2=CC(=O)C(C)(OC(=O)c3ccc(Cl)nc3)C(=O)C2=CO1 (stereo unspecified)	-13%
CC(C)[C@@H](CC(=O)N[C@@H]1CCCC[C@H]1C(=O)N[C@H](CC(=O)N[C@@H](CCC(=O)O)CC(=O)O)Cc1ccccc1)NC(=O)C[C@H](Cc1c[nH]c2ccccc12)NC(=O)[C@@H]1CNCC[C@H]1N	-8%
CC(C)C(=O)SCCCCCCC(=O)Nc1nc(-c2ccccc2)cs1	31%[activator]
CC(C)C[C@@H](CC(=O)N[C@@H](CCCN)CC(=O)N[C@@H]1CCCC[C@H]1C(=O)N[C@H](CC(=O)N[C@@H](CCC(=O)O)CC(=O)O)CC(C)C)NC(=O)[C@@H]1CCCC[C@H]1N	-13%
COc1cccc([C@@H]2Oc3ccc(OC)cc3[C@H](O)[C@H]2O)c1	-7%

(further entries)
mol	Sfp PPTase inh
O=C(O)C1Cc2c([nH]c3ccccc23)C(c2ccccc2)N1 (stereo unspecified)	4%
COc1ccccc1Oc1c(NS(=O)(=O)c2ccc(C(C)(C)C)cc2)nc(-c2ncccn2)nc1OCCO	56µM*
C=C1CCN(Cc2ccc(OC)cc2)S(=O)(=O)c2ccccc21	-18%
CC(C)(C)c1ccc(CN2CCN([C@H](c3ccccc3)c3ccc(Cl)cc3)CC2)cc1	-5%
CCCCCCCC(=O)OCCOC(=O)CCCCCCC	16%

Looked up by structure from the list above:
mol	Sfp PPTase inh
CCCCCCCC(=O)OCCOC(=O)CCCCCCC	16%
CC(C)(C)c1ccc(CN2CCN([C@H](c3ccccc3)c3ccc(Cl)cc3)CC2)cc1	-5%
C=C1CCN(Cc2ccc(OC)cc2)S(=O)(=O)c2ccccc21	-18%
COc1ccccc1Oc1c(NS(=O)(=O)c2ccc(C(C)(C)C)cc2)nc(-c2ncccn2)nc1OCCO	56µM*
